Screening results from PubChem.
GALR2 ag: agonists of human galanin receptor 2 (GALR2). 140,000 tested, 0.48% active. O43603. activation, %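 (tested at 5 µM)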. GALR2-expressing cells, agonist activation read-out;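 active means above mean plus 3 SD of all compounds, about 5% in these data, not always enough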;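 further: 0% = vehicle buffer wells and 100% = reference agonist at full effect; tested in CHO reporter cells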
Target sequence (O43603 whole entry, looked up): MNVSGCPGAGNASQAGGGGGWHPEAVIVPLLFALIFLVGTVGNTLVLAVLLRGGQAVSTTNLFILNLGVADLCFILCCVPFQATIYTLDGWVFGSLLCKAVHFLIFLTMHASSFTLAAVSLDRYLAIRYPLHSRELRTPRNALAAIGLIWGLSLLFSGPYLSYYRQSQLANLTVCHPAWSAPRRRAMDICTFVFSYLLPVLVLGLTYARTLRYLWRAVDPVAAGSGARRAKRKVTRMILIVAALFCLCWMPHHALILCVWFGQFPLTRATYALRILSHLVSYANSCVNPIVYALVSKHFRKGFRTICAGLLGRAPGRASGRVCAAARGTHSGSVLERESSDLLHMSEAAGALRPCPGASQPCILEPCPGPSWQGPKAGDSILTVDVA
RGS16-Gao HTS: RGS16-Galphao interaction regulator (human). O15492+P09471. bead-based flow cytometry RGS16-Galphao binding, fluorescence; actives lie on both sides. binding response (% of control), % at 10 µM. 220,000 tested, 0.38% active;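 active means below 25% or above 175%, edge rows of some plates excepted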;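 further: Galphao activated by GDP with aluminum fluoride before binding; 100% = wells without compound and 0% = beads without RGS; some results beyond the cut were filed as inactive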
Target sequence (O15492 whole entry, looked up): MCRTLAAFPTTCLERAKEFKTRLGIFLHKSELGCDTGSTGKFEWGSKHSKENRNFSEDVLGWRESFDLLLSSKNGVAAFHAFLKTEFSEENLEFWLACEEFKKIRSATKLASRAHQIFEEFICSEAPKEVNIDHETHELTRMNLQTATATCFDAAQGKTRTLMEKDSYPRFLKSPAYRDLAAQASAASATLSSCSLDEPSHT
Target sequence (P09471 whole entry, looked up): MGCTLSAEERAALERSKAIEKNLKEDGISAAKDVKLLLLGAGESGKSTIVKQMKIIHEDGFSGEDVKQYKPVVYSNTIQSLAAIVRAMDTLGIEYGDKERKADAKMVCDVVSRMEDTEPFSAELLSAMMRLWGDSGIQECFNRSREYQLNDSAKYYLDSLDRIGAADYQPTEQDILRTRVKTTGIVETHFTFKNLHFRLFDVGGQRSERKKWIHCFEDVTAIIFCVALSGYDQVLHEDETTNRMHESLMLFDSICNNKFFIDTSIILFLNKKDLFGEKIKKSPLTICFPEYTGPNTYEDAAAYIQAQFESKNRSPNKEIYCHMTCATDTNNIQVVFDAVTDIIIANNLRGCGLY
PKD1 kinase inh: blocks activity of human protein kinase D1; inhibition, %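 (about 10 µM by stock and volumes)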; PKD1 kinase fluorescence polarization assay; AID 797; Q15139; 200,000 tested, 0.056% active;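 active means inhibition of 50% or more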;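 further: controls were vehicle for no effect and a reference inhibitor for full effect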
HSV augment: increases HSV replication in cells. maximum fold increase. HSV replication augmentation in cells, fold increase. 220,000 tested, 0.005% active;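 active means peak rise of 1.5-fold or more in the series; tested in PC3 cells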;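 further: first round at 10 µM; read as green reporter fluorescence; hits show the peak of a series up to 25 µM; 1 = signal of infected wells without compound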
INS promoter inh: TRM-6 insulin promoter activity inhibition. inhibition, % at 2 µM. AID 1273. TRM-6 cells (human fetal islet line), insulin promoter-eGFP reporter, imaging; reporter expression induced with tamoxifen. 130,000 tested, 0.9% active;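 active means inhibition above the mean plus 3 SD, with well images judged a real hit on visual review, cut at about 60% in these data, passing the limit was not always enough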
INS promoter inh cell count: also measured in INS promoter inh; calls as there; normalized cell count, %; measured here: cell count, toxicity; reference of the scale not given here;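 cells exposed to compound for 48 h; stained nuclei by imaging scaled within each plate; lower means fewer cells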
HSV augment primary fold: second read-out of HSV augment, no call of its own (marks repeat the call); fold increase; compound at 10 µM; measured here: primary screen fold increase 10 uM; tested in PC3 cells;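 GFP signal in the first replicate; 1 = infected wells without compound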
Starred values were filed as active, the others as inactive; i = inactive; / = not tested or not shown.

no.	smiles	GALR2 ag	RGS16-Gao HTS	PKD1 kinase inh	INS promoter inh cell count	HSV augment	INS promoter inh	HSV augment primary fold
1	O=C(Cn1cc(C(F)(F)F)ccc1=O)Nc1ccccc1	/	101	/	/	i	/	1.1
2	COc1ccc(C2/C=C\CN(CC3CC3)CC(=O)N2Cc2ccc(F)cc2)cc1 (stereo unspecified)	/	102	/	/	i	/	0.96
3	CCOC(=O)C1C(=O)C(C(=O)OCC)C(c2cccnc2)NC1c1cccnc1 (stereo unspecified)	-0.3	79	-12	66	i	20	0.98
4	Cc1ccc(-c2cc(C(=O)NC3=NCCS3)c3cc(Br)ccc3n2)o1	-2.8	51	-5	96	i	32	0.96
5	COc1ccc(-n2nnc3c(=O)n(CC(=O)OCc4ccccc4)cnc32)cc1	-0.7	104	-10	118	i	-57	1
6	c1ccc(Oc2ccc3ccccc3n2)cc1	/	97	8	86	i	24	0.84
7	Cc1cc(Cl)ccc1Oc1cccc(C(=O)/C(C#N)=C/N(C)C)c1	-1.0	100	-6	61	i	30	0.74
8	CC(C)(C)C(=O)Nc1ccc2c(c1)OCCOCCOc1cc(NC(=O)C(C)(C)C)ccc1OCCOCCO2	/	105	-8	146	i	11	0.84
9	COC(=O)CN1C(=S)N(c2ccc(Cl)cc2)C(=O)C1CC(=O)Nc1ccc(Cl)cc1 (stereo unspecified)	-2.9	103	5	/	/	/	/
10	CCN(CC)Cc1cc(O)c(CN(CC)CC)cc1O	/	98	10	/	i	/	1.1
11	COCCNC(=O)c1cn(Cc2c(F)cccc2Cl)nn1	-1.6	99	-2	43	/	-6	/
12	COc1cc(S(=O)(=O)Nc2ccc(C(=O)NCC(=O)O)cc2)ccc1NC(C)=O	/	106	0	152	i	-10	0.89
13	CCOC(=O)NC(Nc1nnc(C)s1)(C(=O)OCC)C(F)(F)F (stereo unspecified)	-2.3	106	-5	91	i	-10	1.1
14	COc1cc(C(=O)NCCC2=CCCCC2)cc(OC)c1OC	-0.9	103	-7	/	i	/	0.73
15	Cc1cc(C)n2nc(C(=O)NCCc3ccccc3)nc2n1	-2.0	104	-4	69	i	17	1
16	COc1ccc(-c2cc(C(F)(F)F)nc(SCCC(=O)N3CCCC3)n2)cc1	-2.0	107	-10	/	i	/	0.93
17	Cc1cccc(OCc2nc(-c3cccnc3)no2)c1	-1.3	96	4	106	i	-24	0.95
18	Cc1c(CCOC(=O)CC23CC4CC(CC(C)(C4)C2)C3)sc[n+]1Cc1ccc([N+](=O)[O-])cc1	/	103	3	/	i	/	1
19	Cc1ccc(-c2nnc3n2N=C(c2ccccc2Br)CS3)cc1	1.2	104	-13	/	i	/	0.93
20	CCn1c(SCC(=O)Nc2nc(C)cs2)nnc1-c1cccnc1	-0.3	97	13	/	i	/	1
21	OC(CNCc1ccccc1)COCc1ccc(Cl)cc1 (stereo unspecified)	/	107	-2	114	i	-50	0.91
22	C=CCn1ccc2c([N+](=O)[O-])cccc2c1=O	/	103	-3	124	i	-3	0.87
23	CC(CCc1ccccc1)NC(=O)c1cncc(Br)c1 (stereo unspecified)	-2.4	103	-3	131	i	17	0.92
24	COc1cc(Nc2ccccn2)cc(C(=O)Nc2cccc(C(F)(F)F)c2)c1	/	96	/	/	i	/	0.84
25	Cc1ccccc1Cn1c(CN2CCN(C(=O)c3ccco3)CC2)nc2c1c(=O)n(C)c(=O)n2C	/	100	-4	/	i	/	1
26	CCCSc1nsc(SCCC)c1C(N)=O	-2.3	95	-6	119	i	28	0.91
27	C=CCc1cc(C)ccc1OCC(O)CN1CCN(c2ccccc2)CC1 (stereo unspecified)	-0.9	99	8	/	i	/	0.96
28	CCNC(=S)NS(=O)(=O)c1ccc(CC)cc1	-0.6	100	-12	67	i	33	1
29	COc1ccc(Nc2nc(N)nc(CSC(=S)N3CCOCC3)n2)cc1	/	99	-6	86	i	0	1.1
30	CCc1nc2ccccc2n1CCC(C)C	-0.3	108	-6	119	i	29	1.1
31	O=C(CSc1nc(-c2ccccc2)c(-c2ccccc2)[nH]1)NCCN1C(=O)CSC1=O	-2.4	100	1	92	i	32	0.91
32	CCC(=O)N(NC1=NS(=O)(=O)c2ccccc21)S(=O)(=O)c1ccc(C)cc1	/	116	-5	/	i	/	0.9
33	O=C(OCc1nc2ccccc2s1)c1ccco1	/	100	2	26	i	i	0.97
34	N#CCCSc1ccccc1NC(=O)c1ccc(S(=O)(=O)N2CCCC2)cc1	0.0	92	-2	78	i	33	0.73
35	CCOC(=O)CCn1c(=S)n(CCC(=O)OCC)c2ccccc21	/	98	/	/	i	/	0.89
36	O=C(CN(Cc1ccccc1)S(=O)(=O)c1ccc2c(c1)OCCO2)N/N=C/c1cccc(Br)c1	-1.0	105	-11	162	i	5	0.85
37	CCOC(=O)N1CCN(C(=O)CNC(=O)Cc2ccc(Cl)cc2)CC1	-1.4	101	-8	109	i	14	0.97
38	COC(=O)c1ccc(CN2CCN(CC(C)C)C(CCO)C2)cc1 (stereo unspecified)	/	109	/	/	i	/	0.92
39	COc1ccc(C(C#N)Nc2ccccc2C)cc1 (stereo unspecified)	0.3	100	-9	93	i	-8	0.87
40	Cn1cnnc1-c1cccc(NS(=O)(=O)c2ccc(N3CCCC3=O)cc2)c1	-0.9	105	2	102	i	20	1

Sorted by length of the SMILES (low to high): part of the list above.
no.	smiles	GALR2 ag	RGS16-Gao HTS	PKD1 kinase inh	INS promoter inh cell count	HSV augment	INS promoter inh	HSV augment primary fold
30	CCc1nc2ccccc2n1CCC(C)C	-0.3	108	-6	119	i	29	1.1
26	CCCSc1nsc(SCCC)c1C(N)=O	-2.3	95	-6	119	i	28	0.91
33	O=C(OCc1nc2ccccc2s1)c1ccco1	/	100	2	26	i	i	0.97
39	COc1ccc(C(C#N)Nc2ccccc2C)cc1 (stereo unspecified)	0.3	100	-9	93	i	-8	0.87
28	CCNC(=S)NS(=O)(=O)c1ccc(CC)cc1	-0.6	100	-12	67	i	33	1
17	Cc1cccc(OCc2nc(-c3cccnc3)no2)c1	-1.3	96	4	106	i	-24	0.95
23	CC(CCc1ccccc1)NC(=O)c1cncc(Br)c1 (stereo unspecified)	-2.4	103	-3	131	i	17	0.92
22	C=CCn1ccc2c([N+](=O)[O-])cccc2c1=O	/	103	-3	124	i	-3	0.87
20	CCn1c(SCC(=O)Nc2nc(C)cs2)nnc1-c1cccnc1	-0.3	97	13	/	i	/	1
38	COC(=O)c1ccc(CN2CCN(CC(C)C)C(CCO)C2)cc1 (stereo unspecified)	/	109	/	/	i	/	0.92
27	C=CCc1cc(C)ccc1OCC(O)CN1CCN(c2ccccc2)CC1 (stereo unspecified)	-0.9	99	8	/	i	/	0.96
29	COc1ccc(Nc2nc(N)nc(CSC(=S)N3CCOCC3)n2)cc1	/	99	-6	86	i	0	1.1
37	CCOC(=O)N1CCN(C(=O)CNC(=O)Cc2ccc(Cl)cc2)CC1	-1.4	101	-8	109	i	14	0.97
34	N#CCCSc1ccccc1NC(=O)c1ccc(S(=O)(=O)N2CCCC2)cc1	0.0	92	-2	78	i	33	0.73
24	COc1cc(Nc2ccccn2)cc(C(=O)Nc2cccc(C(F)(F)F)c2)c1	/	96	/	/	i	/	0.84
40	Cn1cnnc1-c1cccc(NS(=O)(=O)c2ccc(N3CCCC3=O)cc2)c1	-0.9	105	2	102	i	20	1
32	CCC(=O)N(NC1=NS(=O)(=O)c2ccccc21)S(=O)(=O)c1ccc(C)cc1	/	116	-5	/	i	/	0.9
31	O=C(CSc1nc(-c2ccccc2)c(-c2ccccc2)[nH]1)NCCN1C(=O)CSC1=O	-2.4	100	1	92	i	32	0.91
25	Cc1ccccc1Cn1c(CN2CCN(C(=O)c3ccco3)CC2)nc2c1c(=O)n(C)c(=O)n2C	/	100	-4	/	i	/	1
36	O=C(CN(Cc1ccccc1)S(=O)(=O)c1ccc2c(c1)OCCO2)N/N=C/c1cccc(Br)c1	-1.0	105	-11	162	i	5	0.85
18	Cc1c(CCOC(=O)CC23CC4CC(CC(C)(C4)C2)C3)sc[n+]1Cc1ccc([N+](=O)[O-])cc1	/	103	3	/	i	/	1

Further records follow.
no.	smiles	GALR2 ag	RGS16-Gao HTS	PKD1 kinase inh	INS promoter inh cell count	HSV augment	INS promoter inh	HSV augment primary fold
41	CCOC(=O)c1ccc(NC(=O)Nc2ncc(Cl)cc2Cl)cc1	/	100	/	/	i	/	0.93
42	Cc1cc(/C(N)=N/OC(=O)Nc2cccc(C(F)(F)F)c2)no1	/	95	/	/	i	/	0.97
43	CCc1ccc(/C=N/NC(=O)c2cc(-c3ccccc3OC)nc3ccccc23)s1	-0.8	66	1	/	i	/	1.1
44	Cc1ccc(NC(=O)CSc2nnc(C)n2-c2ccccc2)cc1	-0.3	110	0	/	i	/	0.95
45	Cn1c(NC(=O)c2cccnc2)nc2ccccc21	-1.9	101	-5	/	i	/	0.87
46	COc1cccc(C2CC(c3ccccc3Cl)n3nnnc3N2)c1 (stereo unspecified)	-0.9	103	4	136	i	-82	0.97
47	Cc1ccc(C(=O)COc2nc(C)cc(C)c2C#N)cc1	-0.5	50	-2	193	i	60	0.61
48	CCCN1CCN(c2nc(-c3cccs3)nc3ccccc23)CC1	0.7	108	-5	160	i	-3	0.77
49	CC(C)c1nnc(NC(=O)c2ccc(N3C(=O)CCC3=O)cc2)s1	-2.6	101	2	/	i	/	0.98
50	COc1ccc(C2(C(=O)N3CCOCC3)CCOCC2)cc1OC	0.2	105	9	130	i	9	1
51	O=C(CSc1ncn[nH]1)Nc1nsc(-c2ccccc2)n1	-0.1	50	-10	44	/	-42	/
52	CC1Cc2ccccc2N1C(=O)CSc1nnc(-c2ccccc2)c(-c2ccccc2)n1 (stereo unspecified)	-0.9	102	-1	69	i	17	1.1
53	COc1ccccc1CN1C(=O)c2ccccc2C1C(=O)NC1CCC(C)CC1 (stereo unspecified)	/	101	2	98	i	0	0.97
54	Cc1ccc(-c2nnc(N3CCN(C(=O)c4cccs4)CC3)c3ccccc23)cc1	/	107	/	/	i	/	0.73
55	CCOC(=O)c1cccc(NC(=O)C2CCCN(S(=O)(=O)c3c(C)n[nH]c3C)C2)c1 (stereo unspecified)	-0.1	98	-10	/	/	/	/
56	Cc1ccc(NCCNc2ccc(C)cc2)cc1	-1.2	88	-1	/	i	/	0.77
57	COc1ccc(CCNC(=O)C(=O)NCc2ccccc2)cc1OC	-1.1	97	1	108	i	-13	0.69
58	O=C(CCn1c(=O)oc2ccccc21)N1CCN(c2ccccc2Cl)CC1	-2.0	104	-4	95	i	-128	0.74
59	Cc1cc(NC(=O)CC23CC4CC(C2)CC(CC(=O)Nc2cc(C)on2)(C4)C3)no1	-2.1	102	1	185	i	-105	0.83
60	COc1ccccc1NC(=O)CCSc1nnnn1C	-3.0	104	-6	84	/	-26	/
61	Cc1nn(Cc2c(F)c(F)c(F)c(F)c2F)c(C)c1NC(=O)c1nn(C)cc1[N+](=O)[O-]	-2.0	99	-4	153	i	-27	0.94
62	O=C(/C=C/c1ccc2c(c1)OCO2)NCCSCc1ccc(Cl)cc1Cl	-2.9	100	4	127	/	13	/
63	O=C(Cc1cccs1)Nc1ccc(-c2nnc(-c3ccco3)o2)cc1	/	104	-2	117	i	54	1.1
64	O=C(NCCN1CCN(Cc2ccccc2)CC1)C1CC(=O)N(C2CCCC2)C1 (stereo unspecified)	-1.1	104	0	88	i	-3	0.94
65	CCn1c(SCC(N)=O)nc2sc3c(c2c1=O)CCN(C)C3	/	105	/	/	i	/	0.97
66	COc1ccc(C(=O)Nc2ccc(N3CCN(Cc4ccccc4)CC3)cc2)cc1	/	87	2	/	i	/	0.96
67	O=C(/C=C/c1cccc(Cl)c1)Nc1ccncc1	-1.2	91	-6	86	i	35	0.89
68	O=C(NCc1cccnc1)c1cn(-c2ccccc2)nc1-c1cccs1	-0.9	103	-7	/	i	/	0.97
